Compound activity deposited in PubChem BioAssay by several laboratories.
RecA splice inh: Mtb RecA intein splicing inhibitors, primary screen, biochemical, fluorescence, HTS | Protein RecA (Mycobacterium tuberculosis (strain ATCC 25618 / H37Rv)), P9WHJ3 | cell-free RecA intein splicing | inhibition, %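 (about 9 µM by stock and volumes)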 | actives 0.75% (n = 290,000); in the data active = inhibition above about 30%; inconclusive = no clear call, values can overlap the other calls;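 note: 0% = vehicle wells and 100% = reference inhibitor control wells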
Target sequence (P9WHJ3 whole entry, looked up, canonical isoform): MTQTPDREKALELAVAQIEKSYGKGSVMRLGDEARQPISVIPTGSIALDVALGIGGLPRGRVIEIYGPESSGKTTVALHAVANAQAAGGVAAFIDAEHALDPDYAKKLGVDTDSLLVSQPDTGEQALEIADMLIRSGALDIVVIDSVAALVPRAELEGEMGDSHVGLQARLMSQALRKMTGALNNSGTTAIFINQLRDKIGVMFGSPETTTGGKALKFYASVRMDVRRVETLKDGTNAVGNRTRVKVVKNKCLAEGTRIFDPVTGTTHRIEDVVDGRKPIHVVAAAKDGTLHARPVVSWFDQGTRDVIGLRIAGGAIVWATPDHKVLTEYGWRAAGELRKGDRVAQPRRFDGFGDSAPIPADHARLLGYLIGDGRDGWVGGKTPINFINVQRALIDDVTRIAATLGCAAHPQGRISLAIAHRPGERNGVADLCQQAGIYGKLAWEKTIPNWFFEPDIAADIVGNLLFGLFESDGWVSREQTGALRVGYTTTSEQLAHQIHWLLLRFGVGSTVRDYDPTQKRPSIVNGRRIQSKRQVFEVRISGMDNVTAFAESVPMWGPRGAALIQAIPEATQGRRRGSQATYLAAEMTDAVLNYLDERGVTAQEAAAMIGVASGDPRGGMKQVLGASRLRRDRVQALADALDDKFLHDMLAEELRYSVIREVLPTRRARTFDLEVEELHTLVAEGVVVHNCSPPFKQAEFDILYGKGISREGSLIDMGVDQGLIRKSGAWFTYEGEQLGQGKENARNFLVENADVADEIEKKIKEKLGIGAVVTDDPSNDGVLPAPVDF
YopH PTP inh: YopH tyrosine phosphatase inhibitors, primary screen, biochemical, fluorescence Ex485/Em525; YopH tyrosine phosphatase [Yersinia enterocolitica]; inhibition, %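 (about 10 µM by stock and volumes)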; actives 0.16% (n = 140,000);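 active = inhibition of 50% or more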;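 note: controls were vehicle for no effect and minimum signal wells for full effect; inactives centre near -20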
Mtb H37Rv: M. tuberculosis H37Rv growth inhibitors, H37Rv strain (AID 1626); M. tuberculosis H37Rv growth inhibition; higher % means a stronger effect; inhibition, % at 10 µM; hits with a dose series show IC50 in µM; actives 0.95% (n = 220,000);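 active = confirmed in a dose series; inconclusive = inhibition above 80% but not taken into the dose series; inactive = below 80% or under 30% at every dose of the series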;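 note: bacteria incubated seven days before Alamar blue readout; 0% = bacteria only wells and 100% = bacteria with antibiotic wells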
Arbovirus anti: antivirals against arbovirus infection, primary screen, cell-based, full library, 10K replicate subset. arbovirus infection cell-based antiviral screen. inhibition, % at 10 µM. actives 0.37% (n = 200,000). AID 1251, 2008;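 active = inhibition from about 30%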;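 note: bluetongue infection of BSR cells; cell survival read as ATP light after 72 h; 0% = infected wells without compound and 100% = uninfected wells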
Mtb bLac sens: beta-lactam sensitization of Mtb H37Rv, H37Rv | M. tuberculosis H37Rv growth with meropenem, percent inhibition; hits of this screen are not shown here | AID 434955, 2010 | actives 0.27% (n = 330,000) | inhibition, % at 25 µM;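 active = about 74% or more and at least 40 points above the plate without the antibiotic, then above 30% in a dose series; inconclusive = first-round hits that could not be retested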;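 note: growth measured after seven days incubation then overnight dye step; 0% = bacteria only wells and 100% = bacteria with antibiotic; twin plates without the antibiotic show which effects depend on it; some results filed as inactive read as strong as hits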
Arbovirus anti repeat: recorded beside Arbovirus anti, whose call it bears; inhibition, %; measured here: 10K subset replicate screen; many hits read low in the repeat;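 first of two repeat runs on a subset; 0% = infected and 100% = uninfected wells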
The depositor's hits bear a star.

How did CCC1Oc2ccc(C)cc2N(CC(=O)NCCCN2CCOCC2)C1=O (centres undefined) do in these assays?
RecA splice inh: -0.9; Mtb bLac sens: -2

How did CCCCNC(=S)N1CCn2cccc2C1c1ccccc1 (centres undefined) do in these assays?
RecA splice inh: 8.3; Mtb H37Rv: 4%; Arbovirus anti: -6; Mtb bLac sens: -5

How did C=C(C)CN1C(=O)C2(OCCO2)c2ccccc21 do in these assays?
RecA splice inh: -1.5; Mtb bLac sens: -3

Results for CC(C)n1cnnc1SCC(=O)Nc1cccc(S(=O)(=O)N(C)c2ccccc2)c1 ?
RecA splice inh: 1.0; Mtb H37Rv: -4%; Mtb bLac sens: -7

How did Cc1cc(OCC(=O)N(Cc2ccccc2)C2CCS(=O)(=O)C2)ccc1Cl (centres undefined) do in these assays?
RecA splice inh: -3.0; Mtb bLac sens: 4

How did O=C(NC(=O)c1cccc(OC(F)(F)C(F)F)c1)OC1CCS(=O)(=O)C1 (centres undefined) do in these assays?
RecA splice inh: -0.2; YopH PTP inh: -15; Mtb H37Rv: 3%; Arbovirus anti: 1; Mtb bLac sens: 1

Results for Cc1c(C(=O)NC2CCCc3ccccc32)cccc1[N+](=O)[O-] (centres undefined) ?
RecA splice inh: 0.4; Mtb bLac sens: 1

Results for O=C(CSc1ccc2nnc(-c3ccncc3)n2n1)NCC1CCCO1 (centres undefined) ?
RecA splice inh: 0.4; Arbovirus anti: 3; Mtb bLac sens: 3

What do the screens show for `O=C(C1CCCN1S(=O)(=O)c1ccc(Cl)cc1)N1CCCCC1` (centres undefined)?
RecA splice inh: -3.0; Mtb bLac sens: -6

What do the screens show for `Cc1ccc(C(=O)NCC2(c3ccccc3)CCCC2)cc1`?
RecA splice inh: 0.7; YopH PTP inh: -43; Mtb H37Rv: 9%; Arbovirus anti: 9

Results for O=c1[nH]c(=O)c2nc3c4ccccc4c4ccccc4c3nc2[nH]1 ?
RecA splice inh: -12; Mtb H37Rv: -5%; Arbovirus anti: -8; Mtb bLac sens: 1

What do the screens show for `O=C(Nc1cccc2ccccc12)c1nn(C23CC4CC(CC(C4)C2)C3)cc1[N+](=O)[O-]`?
RecA splice inh: 6.3; YopH PTP inh: -40; Mtb H37Rv: -2%; Arbovirus anti: -11; Mtb bLac sens: 20

Results for COc1cc(C2NCCC(=O)C2(C)C)cc(OC)c1OC (centres undefined) ?
RecA splice inh: -3.9; YopH PTP inh: -9; Mtb H37Rv: -1%; Arbovirus anti: 7; Mtb bLac sens: -6

What do the screens show for `COc1ccc(NS(=O)(=O)c2cccc(C(=O)NNC(=O)c3ccc(NC(C)=O)cc3)c2)cc1`?
RecA splice inh: -1.2; Mtb bLac sens: -6

Results for CCOc1ccc(-n2c(C)cc(C(=O)CCl)c2C)cc1 ?
RecA splice inh: 48*; Mtb H37Rv: 7%; Arbovirus anti: -21; Mtb bLac sens: 92

How did CCC(=O)N(Cc1cc2cc(OC)ccc2[nH]c1=O)c1cccc(C)c1 do in these assays?
RecA splice inh: -2.4; YopH PTP inh: -57; Mtb H37Rv: -10%; Arbovirus anti: 5; Mtb bLac sens: 3

Results for CCOC(=O)c1cccc(N2C(=O)C3C(C2=O)C2C=CC3C23CC3)c1 (centres undefined) ?
RecA splice inh: -0.3; YopH PTP inh: 0; Mtb H37Rv: -7%; Arbovirus anti: 2; Mtb bLac sens: -4

How did CC(C)CN(C(=O)c1cc([N+](=O)[O-])cc([N+](=O)[O-])c1)C1CCS(=O)(=O)C1 (centres undefined) do in these assays?
RecA splice inh: -0.8; Mtb bLac sens: -2

How did CC(C)(C)C1(O)CC(C(F)(F)F)=NN1C(=O)CCc1ccccc1 (centres undefined) do in these assays?
RecA splice inh: 0.4; Mtb H37Rv: -9%; Arbovirus anti: -6; Mtb bLac sens: -11

What do the screens show for `CSc1nsc(SC)c1C(=O)Nc1ccc(C(C)(C)C)cc1`?
RecA splice inh: 2.6; Mtb H37Rv: 1%; Mtb bLac sens: -8

Results for CN(C)C(=O)CSc1nnc(CCCCCNC(=O)OC(C)(C)C)o1 ?
RecA splice inh: 2.0; YopH PTP inh: -64; Mtb H37Rv: -10%; Arbovirus anti: 1; Mtb bLac sens: 3

How did O=S(=O)(Nc1cccc(CCc2ccccn2)c1)c1ccc(Cl)cc1 do in these assays?
Mtb H37Rv: -6%; Mtb bLac sens: -4

How did COC(=O)c1ccc(OC(=O)CCS(=O)(=O)c2ccc(C)cc2)cc1 do in these assays?
RecA splice inh: 7.8; Mtb bLac sens: 0

How did CC(=O)Oc1c(Cl)cc(N(C(C)=O)S(=O)(=O)c2ccccc2)c2ccccc12 do in these assays?
RecA splice inh: 10; Mtb bLac sens: -3

Results for COc1ccc(S(=O)(=O)Nc2ccc(F)c(Cl)c2)cc1OC ?
RecA splice inh: -2.9; YopH PTP inh: -31; Mtb H37Rv: 6%; Arbovirus anti: 9; Mtb bLac sens: -7; Arbovirus anti repeat: 4

What do the screens show for `COC(=O)[C@H](CCSC)NC(=O)NCCC1=CCCCC1`?
RecA splice inh: 0.6; YopH PTP inh: -28; Mtb H37Rv: 0%; Arbovirus anti: 0; Mtb bLac sens: 61

How did CCN1CCN(C(C(=O)NC2CCCC2)c2ccc(Cl)cc2)CC1 (centres undefined) do in these assays?
RecA splice inh: -1.8; YopH PTP inh: -27; Mtb H37Rv: 3%; Arbovirus anti: 4; Mtb bLac sens: -2; Arbovirus anti repeat: -9

How did CCCCn1nnc(NC(=S)NC(=O)c2ccc(-c3cccc(Cl)c3Cl)o2)n1 do in these assays?
RecA splice inh: 4.1; YopH PTP inh: -18; Mtb H37Rv: inconclusive; Arbovirus anti: -1; Mtb bLac sens: 92

Results for O=C(C(Cc1ccc(Cl)cc1)NS(=O)(=O)c1ccccc1)N1CC[C@@]2(O)CCCC[C@H]2C1 (some centres undefined) ?
RecA splice inh: 3.3; YopH PTP inh: -4; Mtb H37Rv: -5%; Arbovirus anti: 8; Mtb bLac sens: 1

Results for O=C(COc1ccccc1Cl)c1ccc2c(c1)CCCC2 ?
RecA splice inh: -1.3; YopH PTP inh: -27; Arbovirus anti: 12; Mtb bLac sens: -5

How did COCCN(C(=O)COC(=O)c1ccc(C=O)cc1)c1c(N)n(Cc2ccccc2)c(=O)[nH]c1=O do in these assays?
RecA splice inh: -1.8; Mtb bLac sens: -11

How did Cc1cc(C)c(C)c(OCC(=O)NCC2CCCO2)c1 (centres undefined) do in these assays?
RecA splice inh: -1.8; YopH PTP inh: -25; Mtb H37Rv: 0%; Arbovirus anti: 4; Mtb bLac sens: -13

How did O=C(NCC1CCCO1)c1ccc([N+](=O)[O-])o1 (centres undefined) do in these assays?
RecA splice inh: -23; Mtb bLac sens: -1

What do the screens show for `O=C(NCc1ccccc1F)C1CCCN(c2cnccn2)C1` (centres undefined)?
RecA splice inh: -3.2; Mtb bLac sens: -2

Results for CON1C(=O)CN(C(C)=O)C1c1ccc(Cl)cc1Cl (centres undefined) ?
YopH PTP inh: -25; Mtb H37Rv: 7%; Arbovirus anti: 13

Results for O=C(Nc1ccc2c(c1)CCC2)c1ccc(F)cc1 ?
RecA splice inh: 3.0; YopH PTP inh: -41; Mtb H37Rv: 27%; Arbovirus anti: 3; Mtb bLac sens: 14

The last three entries of the section above open the next one:
What do the screens show for `O=C(NCc1ccccc1F)C1CCCN(c2cnccn2)C1` (centres undefined)?
RecA splice inh: -3.2; Mtb bLac sens: -2

Results for CON1C(=O)CN(C(C)=O)C1c1ccc(Cl)cc1Cl (centres undefined) ?
YopH PTP inh: -25; Mtb H37Rv: 7%; Arbovirus anti: 13

Results for O=C(Nc1ccc2c(c1)CCC2)c1ccc(F)cc1 ?
RecA splice inh: 3.0; YopH PTP inh: -41; Mtb H37Rv: 27%; Arbovirus anti: 3; Mtb bLac sens: 14

What do the screens show for `O=C(Nc1ccccc1N1CCCC1)c1ccc(N2CCCC2=O)cc1`?
RecA splice inh: -0.8; Mtb bLac sens: 2

Results for COc1ccc(-n2c(C)nc3c(cnn3-c3ccc(C)c(C)c3)c2=O)cc1 ?
RecA splice inh: 1.9; YopH PTP inh: -18; Mtb H37Rv: 18%; Arbovirus anti: 1; Mtb bLac sens: 2; Arbovirus anti repeat: -1

Results for c1ccc2[nH]c(SCCN3CCOCC3)nc2c1 ?
RecA splice inh: 0.7; YopH PTP inh: -43; Mtb H37Rv: -6%; Arbovirus anti: 9; Mtb bLac sens: -5; Arbovirus anti repeat: -2

Results for c1ccc2[nH]c(CN3CCCCCC3)nc2c1 ?
RecA splice inh: 1.9; YopH PTP inh: -20; Mtb H37Rv: -7%; Arbovirus anti: 6; Mtb bLac sens: -7

What do the screens show for `CCc1ccc(CNC(=O)CCCn2c(=O)c3cccn3c3cccnc32)cc1`?
RecA splice inh: 5.2; Mtb bLac sens: 3

Results for COC(=O)c1sccc1-n1cccc1C(=O)C(=O)N1CCCCC1 ?
RecA splice inh: 1.3; YopH PTP inh: -17; Mtb H37Rv: 0%; Arbovirus anti: 7; Mtb bLac sens: -7

Results for O=c1nc(-c2ccccc2)c2cc(Br)ccc2[nH]1 ?
RecA splice inh: -1.4; Mtb bLac sens: 6

How did COc1ccc2cnn(-c3ccc(OC(F)(F)F)cc3)c(=O)c2c1OC do in these assays?
RecA splice inh: 0.1; Mtb H37Rv: 1%; Mtb bLac sens: -6

Results for COc1cc(/C=C/C(=O)O)cc(S(=O)(=O)Nc2ccc3[nH]c(=O)[nH]c3c2)c1OC ?
RecA splice inh: -1.3; Mtb bLac sens: -6

Results for CCOC(=O)C1CCN(CC(=O)Nc2ccc(S(=O)(=O)N3CCC(C)CC3)cc2)CC1 ?
RecA splice inh: 0.0; Mtb bLac sens: -10

What do the screens show for `Cn1cnc2c1c(=O)n(Cc1cccc(F)c1)c(=O)n2C`?
RecA splice inh: -2.7; Mtb bLac sens: -5

How did COc1cc(/C=C2/SC(=O)N(Cc3ccccc3)C2=O)ccc1OCc1ccncc1 do in these assays?
RecA splice inh: -3.6; YopH PTP inh: -23; Mtb H37Rv: 10%; Arbovirus anti: -2; Mtb bLac sens: 4

Results for Cn1c(=O)c2cc3ccc(Cl)cc3nc2n(C)c1=O ?
RecA splice inh: -7.0; Mtb H37Rv: -2%; Mtb bLac sens: 1

How did O=C(Nn1c(O)c(C=C2N=c3ccccc3=N2)sc1=S)c1ccccc1 do in these assays?
RecA splice inh: -1.3; YopH PTP inh: -9; Mtb H37Rv: -11%; Arbovirus anti: 0; Mtb bLac sens: 70

What do the screens show for `CN(C)c1ccc(-c2nnn(Cc3ccccc3Br)n2)cc1`?
RecA splice inh: -1.9; YopH PTP inh: -44; Mtb H37Rv: 9%; Arbovirus anti: 1; Mtb bLac sens: 7

What do the screens show for `CC(C)C(=O)Nc1c(-c2ccccc2F)c(=O)c2ccccc2n1C`?
RecA splice inh: -0.9; Mtb bLac sens: 3

Results for NC(=O)CC(NC(=O)Cc1cccc2ccccc12)c1ccc(N2CCN(c3ccccn3)CC2)c([N+](=O)[O-])c1 (centres undefined) ?
RecA splice inh: 4.4; Mtb bLac sens: -5

Results for Cc1cccc(N2CCN(C(=O)c3cccc(N4C(=O)C5CC=CC(C)C5C4=O)c3)CC2)c1C (centres undefined) ?
RecA splice inh: 1.2; YopH PTP inh: -18; Mtb H37Rv: -7%; Arbovirus anti: -5; Mtb bLac sens: -4

Results for COC(=O)COc1cccc(NC(=O)COc2ccccc2)c1 ?
RecA splice inh: 0.8; YopH PTP inh: 5; Mtb H37Rv: 2.7µM*; Arbovirus anti: 7; Mtb bLac sens: 100; Arbovirus anti repeat: 4

What do the screens show for `Cc1nc2c([nH]c3ccc(Br)cc32)s1`?
RecA splice inh: 0.3; YopH PTP inh: -4; Mtb H37Rv: 1%; Arbovirus anti: 4; Mtb bLac sens: -4

Results for Cc1nn(C)cc1/C=C/C(=O)c1ccccc1 ?
RecA splice inh: 6.1; YopH PTP inh: -4; Mtb H37Rv: 2%; Arbovirus anti: -1

Results for CCOC(=O)Nc1nc(-c2ccccc2)c(C(=O)c2ccccc2)s1 ?
RecA splice inh: 5.7; YopH PTP inh: 4; Mtb H37Rv: 3%; Arbovirus anti: -3; Mtb bLac sens: 68

Gathered by group, the entries above with a furan ring, fused or not (two)
How did CCCCn1nnc(NC(=S)NC(=O)c2ccc(-c3cccc(Cl)c3Cl)o2)n1 do in these assays?
RecA splice inh: 4.1; YopH PTP inh: -18; Mtb H37Rv: inconclusive; Arbovirus anti: -1; Mtb bLac sens: 92

How did O=C(NCC1CCCO1)c1ccc([N+](=O)[O-])o1 (centres undefined) do in these assays?
RecA splice inh: -23; Mtb bLac sens: -1

These rows are one share of the data; rates above refer to the full screens.
